Bioassay records as filed in PubChem BioAssay.
Sa RN4220 lethal – kills Staphylococcus aureus RN4220; AID 1259311; hit rate 0.33% among 330,000; inhibition, % (no concentration beside the values); S. aureus RN4220 growth, OD600, 16 h;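 active means z-score of -3 or lower and OD600 up to 0.18 on both plates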;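 further: plate controls were untreated cells for no effect and reference antibiotic for full effect; stock transfer was 100 nL into about 80 µL; one replicate is shown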
Autofluor counter – flagged as autofluorescent in microsphere protease counterscreen; compound autofluorescence counterscreen, microsphere flow cytometry; stronger effect = higher value; fluorescence intensity (concentration not given with the values); hit rate 3.1% among 360,000;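 active means at least 3 SD above the mean of all compounds, about 16000 in these data; inconclusive means too few beads counted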;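 further: 100 nL of 1 mM stock went into each well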
PrP 5UTR inh – inhibition of PrP 5' UTR reporter expression. inhibition, % (test concentration not listed). hit rate 0.35% among 340,000. cell-based PrP 5' UTR mRNA reporter, plate reader;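 active means every replicate at 50% or more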;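 further: 0 = median of the neutral control wells; tested in H4 reporter cells; numbers are from one replicate; inactives centre near -14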
Sa ugtP lethal – growth inhibition of S. aureus ugtP deletion strain. S. aureus RN4220 ugtP deletion, OD600 growth, 16 h; some inactives read as strong as hits. growth inhibition, % (concentration not given with the values). hit rate 0.54% among 330,000. AID 1259309;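 active means z-score under -3 and OD600 up to 0.15 on both plates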;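 further: plate controls were untreated wells for no effect and antibiotic for full effect; wells of about 80 µL received 100 nL stock; the first replicate is given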
BJeLR lethal – kills HRASV12-expressing BJeLR cells. BJeLR (HRASV12) viability, CellTiter-Glo ATP luminescence, 48 h; reference of the scale not given here. inhibition, % (concentration not given with the values). hit rate 0.17% among 300,000. AID 1554;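 active means replicate mean above 50%; inconclusive means above 50% but judged a plate artefact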;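 further: 50 nL library stock added to about 25 µL; numbers are from one replicate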
Mtb hypoxia rep – inhibitors of hypoxia-regulated fluorescent reporter in Mycobacterium tuberculosis; AID 1159583; hit rate 0.1% among 300,000; M. tuberculosis hypoxia-regulated fluorescent reporter, fluorescence; fluorescence inhibition, % (no concentration beside the values);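 active means 35 to 45% if threefold the growth effect, above 45% if 1.5-fold the growth effect; inactive means the rest, general growth blockers included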;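 further: wells of about 50 µL received 100 nL stock; 0% = vehicle wells and 100% = reference inhibitor wells; whole bacteria with a GFP reporter of the hypoxia response; strong numbers were not always called active; many hits fall short of the cut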
Mtb hypoxia rep growth – further read-out of Mtb hypoxia rep, marked with its call; growth inhibition, %; measured here: M. tuberculosis growth (absorbance);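 0% = vehicle and 100% = reference antibiotic; read after six days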
Numbers without * were called inactive; ? = inconclusive; . = not tested or not shown; & = joins results of further samples.

Start of the data: the first two records as a preview:
item	smiles	Sa RN4220 lethal	Autofluor counter	PrP 5UTR inh	Sa ugtP lethal	BJeLR lethal	Mtb hypoxia rep	Mtb hypoxia rep growth
1	CCCCNC(=O)NCc1cnn(C)c1C	3.8	2274	-12	7	-3	3	3
2	Cc1ccc(Nc2cc(-n3cccn3)ncn2)c(C)c1	1.9	12195	-89	4	-7	-3	3

Main list, from the first entry:
item	smiles	Sa RN4220 lethal	Autofluor counter	PrP 5UTR inh	Sa ugtP lethal	BJeLR lethal	Mtb hypoxia rep	Mtb hypoxia rep growth
1	CCCCNC(=O)NCc1cnn(C)c1C	3.8	2274	-12	7	-3	3	3
2	Cc1ccc(Nc2cc(-n3cccn3)ncn2)c(C)c1	1.9	12195	-89	4	-7	-3	3
3	CCCCCN(C(=O)CCC(=O)OCC(=O)N(C)c1ccccc1)c1c(N)n(CCCC)c(=O)[nH]c1=O	1.2	.	-4	3	-8	4	0
4	Cn1c(=O)c(Oc2ccc(Cl)cc2)c(O)c2ccccc21	-3.2	2011	-9	10	-10	6	15
5	Cc1ccc(S(=O)(=O)c2c(C)nn(-c3ccccc3)c2OC(=O)c2ccc(Br)o2)cc1	7.8	1953	-10	3	.	-5	-2
6	CC(=O)c1cc(C#N)c(Oc2ccc(F)cc2)nc1C	-2.8	3831	-4	-1	5	.	.
7	O=[N+]([O-])c1cccc(-c2ncc3ccccn23)c1	.	4652	-18	.	-15	.	.
8	C=CCSc1nc2sc3c(c2c(=O)n1-c1ccccc1)CCN(C)C3	4.0	4530	-24	12	-5	9	7
9	O=C(C1CCN(Cc2nc(-c3ccc(Cl)cc3)no2)CC1)N1CCOCC1	7.7	3423	-16	9	-3	-7	0
10	O=C(Nc1ccc(Br)cc1)c1cc2ccccn2n1	6.6	4085	-15	-1	6	9	2
11	COc1ccc(CN2CCNCC2)c(OC)c1OC	5.5&4.8	6152&6058	-28&-9	-4&-5	-6	12&1	8&2
12	COc1ccccc1Cn1c(=S)[nH]c2cc(C(=O)NC(C)C)ccc2c1=O	4.0	3775	-21	-3	8	-1	1
13	Cc1cc(=O)c2cccc(Br)c2[nH]1	5.9	2485	-3	1	-4	9	6
14	CC(=NNC(=S)NCc1ccccc1)c1ccc(C#N)cc1	-2.3	.	.	-4	.	4	19
15	CC1CCC2(CC1)NC(=O)N(CC(=O)Nc1ccc3c(c1)CCC3)C2=O (centres undefined)	2.3	4579	-22	-2	19	10	7
16	Cc1ccc(NC(=O)C2CCCN(C(=O)NCc3ccccc3)C2)c(C)c1 (centres undefined)	-0.3	4337	-3	-2	6	3	-9
17	CCOC(=O)C1C(=O)NCC1c1ccccc1 (centres undefined)	0.0	9368	-15	-7	-5	-5	-2
18	CC(=O)Nc1cc(C(=O)NCc2ccco2)ccc1Sc1ccc(F)cc1	-1.4	2319	1	0	-3	-1	11
19	CCCN(CC(=O)Nc1ccccc1OC)C(=O)c1ccc2c(c1)NC(=O)C(C)S2 (centres undefined)	3.8	3702	-19	2	.	4	3
20	COC(=O)c1ccc(C(=O)OC)c(NC(=O)CSCc2ccc(Br)cc2)c1	14	11637	-10	9	-4	2	5
21	O=C(Nc1ccc(Cl)c(Cl)c1)N1CCOCC1	3.6	3966	-17	0	0	11	4
22	CCNC(=S)NNC(=O)C1CCN(Cc2ccccc2)CC1	0.2	4217	0	-1	9	-9	-13
23	Cc1ccc(C)c2nc3sc(C(=O)N4CCOCC4)c(N)c3cc12	4.4	2399	-69	3	-5	-6	9
24	CC(C)CC(C(=O)NCC1CCCO1)N(C(=O)Cn1nnc(-c2ccc(F)cc2)n1)c1cccc(C(F)(F)F)c1 (centres undefined)	1.8	23362*	4	-1	0	0	4
25	O=C1NC(=O)/C(=C\c2ccc(Oc3ccc([N+](=O)[O-])cn3)cc2)S1	8.9	3815	-17	16	1	7	7
26	COc1ccc(-c2cc3c(=O)n(CC(=O)Nc4ccc(Cl)cc4)nc(C)n3n2)cc1	-2.3	5347	-7	-7	3	-8	-6
27	Cc1snc(SCc2ccc(Cl)cc2)c1C#N	-0.1	2869	-21	65	6	9	7
28	COc1ccc(NS(=O)(=O)c2cccc(NC(=O)COc3ccc(OC)cc3)c2)cc1	-1.2	5170	1	7	18	5	16
29	CC(=O)Nc1ccc(Oc2ccc([N+](=O)[O-])cc2Cl)cc1	-0.3	4960	-23	-3	-3	13	7
30	CCOC(=O)c1cn(Cc2cccc(C)c2)nn1	-0.4	1935	-22	4	-5	.	.
31	O=C(OCc1ccccc1Cl)c1cccnc1Cl	8.1	21281*	-8	4	-19	6	5
32	O=C(NCCCN1CCOCC1)c1ccc(Cl)cc1[N+](=O)[O-]	2.4	4326	-12	0	1	-1	18
33	COc1ccc(NC(=S)N2CCN(c3ccccn3)CC2)cc1OC	3.7	7866	-6	13	6	-2	5
34	COc1ccc(S(=O)(=O)NC2CCCCCC2)c(OC)c1	-1.8	5651	-14	-1	-3	1	10
35	CCN(CC)S(=O)(=O)c1ccc(NC(=S)NC(=O)CC(C)C)cc1	-2.4	2061	-6	89*	0	8	7
36	Cc1cc(OCC(=O)N2CCN(c3ccccc3)CC2)c2c(C)c(C)c(=O)oc2c1	2.2	5653	-16	-1	-2	-10	-2
37	CN(Cc1ccccc1)C(=O)C1CCCN1S(=O)(=O)c1ccc(Cl)cc1 (centres undefined)	1.1	6171	.	-2	.	5	10
38	CC1(C)Nc2ccccc2N(CCC(=O)N2CCOCC2)C1=O	0.6	5033	-6	5	0	.	.
39	CN1CC(=O)N(CC(=O)Nc2cccc3ccccc23)C1=O	6.6	5173	-15	5	.	3	1
40	O=C(Nc1nnc(S(=O)(=O)N2CCOCC2)s1)c1ccccc1Cl	2.1	5938	-9	-3	6	2	10
41	Cc1ccccc1-n1c(SCC(=O)N2CCCCC2)nc(O)cc1=O	3.1	5292	-8	1	1	6	-5
42	COC(=O)c1c(-c2ccc(OC)cc2)oc2ccc(-c3ccc(OC)nc3)cc12	20	3094	-3	27	-5	2	4
43	c1cncc(CNc2cccc(-c3nc4ccccc4[nH]3)c2)c1	8.6	2062	-72	27	5	13	1
44	COC(=O)C1=CN(c2cc(C)cc(C)c2)C=C(C(=O)OC)C1c1cccc(F)c1	-4.0	6005	-1	-10	2	-3	0
45	CN(C)S(=O)(=O)c1cc(C(=O)O)c(NC2CCCCC2)cc1Cl	9.5	7928	-22	13	0	6	9
46	N#Cc1nnn2c1nc(N)c1c(F)cccc12	1.5	4432	-4	5	5	2	-9
47	CN(C)CCNS(=O)(=O)c1ccc(N2CCN(c3ccc(F)cc3)CC2)c([N+](=O)[O-])c1	-0.3	2432	-13	2	11	12	2
48	O=C(NCC(c1ccco1)N1CCN(c2ccc(F)cc2)CC1)C(=O)NC1CCCC1 (centres undefined)	1.8	5903	-15	9	5	11	-2
49	Cc1ccc(CNC(=O)Cn2ccc3cc(S(=O)(=O)N4CCCC4)ccc32)o1	1.8	4776	-41	8	-7	9	-2
50	CN(C)CCCN(C(=O)c1ccc(C(=O)c2ccccc2)cc1)c1nc2c(F)cccc2s1	-0.3	4569	-13	6	-14	11	1
51	O=C1OC(c2ccc3c(c2)OCO3)=N/C1=C\c1ccc(C(=O)O)cc1	2.5	3050	-12	5	-2	5	-6
52	CCOC(=O)N1CCN(C(=O)CSCc2ccc(Br)cc2)CC1	12	4354	-3	6	.	-5	-6
53	CCOc1ccc(C=NNC(=S)Nc2c(C)cccc2C)cc1	3.6	.	.	53	.	0	14
54	CCOc1ccc(C(=O)N[C@H](C(=O)O)C(C)C)cc1	0.6	3383	-7	1	8	.	.
55	COCC1CCN(C(=O)C2CCC(=O)N(CCc3cccc(F)c3)C2)CC1 (centres undefined)	1.4	?	-7	2	-1	4	14
56	O=C(c1cccs1)N1CCN(Cc2cccnc2)CC1	5.4	15229	-21	11	-6	5	-6
57	COC(=O)c1ccccc1OCc1cccc(C)n1	4.1	2998	-30	0	-3	.	.
58	O=C(OCC(=O)N1CCCc2ccccc21)c1cc(S(=O)(=O)N2CCOCC2)ccc1O	5.1	4905	-16	4	.	-9	-3
59	CS(=O)(=O)c1ccc(C(=O)N2CCN(C(=O)c3ccco3)CC2)cc1	2.3	6052	-16	4	.	-4	1
60	CC(=O)c1cccc(NC(=O)C2C(c3ccccc3)C2(Cl)Cl)c1 (centres undefined)	-2.7	4703	-17	-10	.	-4	2

More entries follow.
item	smiles	Sa RN4220 lethal	Autofluor counter	PrP 5UTR inh	Sa ugtP lethal	BJeLR lethal	Mtb hypoxia rep	Mtb hypoxia rep growth
61	O=C(Nc1ccc(Cl)cn1)c1cccnc1	1.8	4436	-13	-2	-7	.	.
62	O=C(COC(=O)Cn1cnc2ccccc2c1=O)Nc1ccc(Cl)c(C(F)(F)F)c1	10	2207	-9	21	-8	0	12
63	CC(C)C(=O)Nc1cccc(C(=O)Nc2nnc(C(C)C)s2)c1	8.5	3079	-27	-3	1	5	3
64	Cc1ccc(C(=O)OCC(=O)c2ccc[nH]2)s1	3.2	5072	-55	3	-6	-3	1
65	CN(Cc1cnccn1)Cc1nc(Cc2cccc(F)c2)no1	7.9	3734	-12	3	-1	2	2
66	CCC(C)(C)C(=O)Nc1ccc(C(N)=O)cc1	1.0	2202	-39	5	0	.	.
67	O=Cc1cccn1-c1c(C(=O)O)cnn1-c1ccccc1	6.9	3977	42	0	-2	6	8
68	O=C(c1cc(COc2cccc(C(F)(F)F)c2)on1)N1CCC(c2ccncc2)CC1	3.7	6034	-25	3	23	9	7
69	CCCCOc1ccc(OCCCN2CCOCC2)cc1	4.2	5747	-6	0	-1	3	0
70	C[C@]12CC[C@H](O)C[C@@H]1CC[C@@H]1[C@@H]2CC[C@]2(C)[C@@H](C(=O)O)C[C@@H]12	.	3522	-7	.	8	.	.
71	CC(=NCCCn1ccnc1)c1c(C)[nH]n(-c2ccc([N+](=O)[O-])cc2)c1=O	0.3	4056	-20	-2	11	8	4
72	CC1(C)CC(=O)C(C=NCCN2CCN(C(=S)Nc3cccc(Cl)c3)CC2)=C(O)C1	3.8	9460	-18	-2	8	-2	8
73	CCCC(=O)NC(=S)c1c(C)n(C)n(-c2ccccc2)c1=O	2.2	3298	-29	4	6	7	7
74	Cc1cc(-c2n[nH]c(=S)n2N=Cc2c[nH]c3ccccc23)n[nH]1	7.3	.	.	-6	.	-2	-3
75	C/C(C=NNC(=O)c1ccncc1)=C\c1ccccc1	1.9	.	.	15	.	16	7
76	CCOCC(=O)Nc1nc2c(s1)C(=O)CC(C)(C)C2	-1.1	4333	-38	4	11	2	13
77	O=C(CNc1ccc2ccccc2c1)N/N=C/c1ccncc1	.	3814	-26	.	5	.	.
78	COC(=O)c1cc(OC)c(OC)cc1NC(=O)Nc1ccccc1F	0.8	4588	.	4	-5	2	-2
79	CCOP(=O)(OCC)C(NCc1ccccc1)c1ccc(Br)cc1 (centres undefined)	6.1	4170	-9	-2	7	7	8

Rows were taken by chance; about 4% have a hit in one of these screens.
